# Screening data (PubChem BioAssay)
# Vaccinia inh: blocks a specific stage of Vaccinia orthopoxvirus infection | Vaccinia-infected cells, mCherry/Venus stage reporter fluorescence; hits give low values; some inactives read as strong as hits | activity change (mCherry), % (no concentration beside the values) | 89,000 compounds, 0.01% hits | AID 1053133;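 active = mCherry past -33% and 40 or more points under the early reporter, replicates agreeing; inconclusive = past -33% without that gap or agreement; tested in A549 cells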;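 note: scaled between vehicle wells and reference inhibitor wells; 23 nL library stock went into each well; one replicate is shown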
# Vaccinia inh Venus: recorded beside Vaccinia inh, whose call it bears; activity change (Venus), %; measured here: Venus reporter, other viral stage;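 negative = less Venus signal; first of two replicates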
# Active calls of the source: *; ? = inconclusive; nt = no result given; & = joins results of further samples.
# The opening 2 records (preview)
SMILES,Vaccinia inh,Vaccinia inh Venus
O=C(C1CCC1)N1CC(=O)N2[C@H](CO)[C@H](c3ccc(C#CCc4ccccc4)cc3)[C@H]2C1,-20.7,-16.9
O=C(c1ccc(F)cc1)N1[C@H](CO)[C@@H]2c3ccccc3NC[C@@H]21,-2.1,-9.0

# The list itself, from the first entry:
SMILES,Vaccinia inh,Vaccinia inh Venus
O=C(C1CCC1)N1CC(=O)N2[C@H](CO)[C@H](c3ccc(C#CCc4ccccc4)cc3)[C@H]2C1,-20.7,-16.9
O=C(c1ccc(F)cc1)N1[C@H](CO)[C@@H]2c3ccccc3NC[C@@H]21,-2.1,-9.0
Cc1noc(C)c1S(=O)(=O)Nc1ccc2c(c1)C(=O)N([C@H](C)CO)C[C@@H](C)[C@@H](CN(C)Cc1ccc3c(c1)OCO3)OCCCC[C@H](C)O2,?,nt
COc1ccc(S(=O)(=O)Nc2ccc3c(c2)C(=O)N([C@@H](C)CO)C[C@H](C)[C@H](CN(C)CC2CC2)O3)cc1,7.5,9.0
C[C@H](CO)N1C[C@H](C)[C@@H](CN(C)Cc2ccc(C(=O)O)cc2)OCc2ccccc2-c2c(n(C)c3ccccc23)C1=O,10.3,14.9
COc1cccc(S(=O)(=O)N[C@H]2CC[C@H](CCn3cc(-c4ccccc4OC)nn3)O[C@@H]2CO)c1,-8.9,-2.0
C#Cc1ccc([C@H]2C=C(C(=O)NCc3nc4ccccc4[nH]3)O[C@@H](OCCCCO)C2)cc1,-8.4,-4.5
CO[C@@H]1CN(C)C(=O)c2cc(NC(C)=O)ccc2OC[C@@H](C)N(Cc2ccccc2C(=O)O)C[C@H]1C,19.9,9.1
CNC[C@H]1OCc2ccccc2-c2ccccc2C(=O)N([C@H](C)CO)C[C@@H]1C,10.1,3.8
O=S(=O)(N[C@@H]1CC[C@@H](CCn2cc(C3(O)CCCC3)nn2)O[C@@H]1CO)c1ccc(Cl)cc1,7.5,15.6
C[C@@H]1CN([C@@H](C)CO)C(=O)c2c(c3ccccc3n2C)-c2ccccc2CO[C@H]1CN(C)Cc1ccncc1,-10.7,-9.5
CN(C)C(=O)[C@H]1[C@H](CO)[C@H]2Cn3c(ccc(/C=C/c4ccccc4)c3=O)[C@H]2N1C(=O)c1cccnc1,3.2,-0.7
COCC(=O)N1[C@H](CO)[C@H]2c3ccccc3N(C(=O)NC(C)C)C[C@H]21,10.5,15.2
O=C(NCC[C@H]1CC[C@@H](NC(=O)C2CC2)[C@H](CO)O1)c1ccc(F)cc1,-2.2,-1.5
N#C[C@@H]1[C@@H](c2ccccc2-c2ccccc2)[C@H](CO)N1C(=O)NC1CCCC1,-30.2,-24.0
CO[C@H]1CN(C)C(=O)c2ccc(NS(=O)(=O)c3cn(C)cn3)cc2OC[C@H](C)N(Cc2cccc(F)c2)C[C@@H]1C,-0.9,-1.1
C[C@H](CO)N1C[C@H](C)[C@@H](CN(C)C(=O)Nc2ccccc2)Oc2ccc(NC(=O)c3ccncc3)cc2C1=O,11.8,4.3
COCC(=O)N(C)C[C@H]1Oc2cc(C3=CCCCC3)ccc2S(=O)(=O)N([C@@H](C)CO)C[C@H]1C,-8.1,-8.7
COc1ccc(S(=O)(=O)Nc2ccc3c(c2)C(=O)N([C@@H](C)CO)C[C@@H](C)[C@@H](CN(C)S(=O)(=O)c2cn(C)cn2)OCCCC[C@H](C)O3)cc1,20.3,20.7
CN1c2ccc(-c3ccccc3)cc2[C@H]2[C@H](CCN2C(=O)c2ccccc2)[C@H]1CO,?,nt
C[C@@H]1CCCCO[C@@H](CN(C)Cc2ccc(Cl)c(Cl)c2)[C@@H](C)CN([C@@H](C)CO)C(=O)c2cc(NS(=O)(=O)c3ccccc3)ccc2O1,-20.7,-26.0
Cc1ccc(S(=O)(=O)N[C@H]2CC[C@H](CC(=O)N3CCN(c4ccccc4)CC3)O[C@@H]2CO)cc1,-9.9,-8.3
Cn1cnc(S(=O)(=O)N[C@H]2CC[C@@H](CC(=O)N3CCN(c4ccccc4)CC3)O[C@@H]2CO)c1,0.7,8.0
O=C(c1ccc(F)cc1)N1CC(=O)N2[C@H](CO)[C@H](c3ccc(-c4cccnc4)cc3)[C@H]2C1,24.8,-1.4
COc1ccc(-c2cnc3c(c2)C(=O)N([C@H](C)CO)C[C@H](C)[C@@H](CN(C)C(=O)Cc2ccccn2)O3)cc1,15.5,6.2
COc1ccc(S(=O)(=O)N(C)C[C@@H]2Oc3c(NC(=O)C4CCOCC4)cccc3C(=O)N([C@@H](C)CO)C[C@H]2C)cc1,8.5,7.3
COc1ccc(NC(=O)N(C)C[C@@H]2Oc3ncc(C#CC(C)C)cc3C(=O)N([C@H](C)CO)C[C@H]2C)cc1,2.4,0.3
COc1ccccc1-c1ccc([C@H]2[C@@H](CO)N3CCCCN(C(=O)c4ccncc4)C[C@H]23)cc1,-1.3,-4.4
O=C(NCC[C@H]1CC[C@@H](NC(=O)c2cnccn2)[C@@H](CO)O1)Nc1ccc(F)cc1,6.8,11.5
CN(C)C(=O)C[C@H]1C[C@H]2c3cc(NS(=O)(=O)c4ccccc4)ccc3O[C@H]2[C@@H](CO)O1,3.2,3.3

# Whole records, looked up by structure. Values in the order: Vaccinia inh, Vaccinia inh Venus
# `CN1c2ccc(-c3ccccc3)cc2[C@H]2[C@H](CCN2C(=O)c2ccccc2)[C@H]1CO` reads ?, nt
# `COc1ccc(NC(=O)N(C)C[C@@H]2Oc3ncc(C#CC(C)C)cc3C(=O)N([C@H](C)CO)C[C@H]2C)cc1` reads 2.4, 0.3
# `O=C(c1ccc(F)cc1)N1CC(=O)N2[C@H](CO)[C@H](c3ccc(-c4cccnc4)cc3)[C@H]2C1` reads 24.8, -1.4
# `C[C@H](CO)N1C[C@H](C)[C@@H](CN(C)C(=O)Nc2ccccc2)Oc2ccc(NC(=O)c3ccncc3)cc2C1=O` reads 11.8, 4.3
# `C[C@@H]1CCCCO[C@@H](CN(C)Cc2ccc(Cl)c(Cl)c2)[C@@H](C)CN([C@@H](C)CO)C(=O)c2cc(NS(=O)(=O)c3ccccc3)ccc2O1` reads -20.7, -26.0

# More structures follow.
SMILES,Vaccinia inh,Vaccinia inh Venus
C[C@@H]1CN([C@H](C)CO)C(=O)Cc2cc(NS(=O)(=O)c3ccc(F)cc3)ccc2O[C@H]1CN(C)Cc1ccc2c(c1)OCO2,-7.4,-1.5
O=C(NC[C@H]1CC[C@H]2[C@H](CN2Cc2nccs2)O1)C1CCC1,7.8,2.9
CC(=O)N(C)C[C@@H]1Oc2cc(Br)ccc2S(=O)(=O)N([C@@H](C)CO)C[C@@H]1C,6.8,-2.0
COc1ccc(C#Cc2ccc([C@@H]3[C@@H](CO)N4CCCCN(Cc5ccccc5F)C[C@H]34)cc2)cc1,?,nt
C[C@@H]1CCCCO[C@@H](CN(C)S(=O)(=O)c2cn(C)cn2)[C@@H](C)CN([C@@H](C)CO)C(=O)c2cc(NC(=O)NC3CCCCC3)ccc2O1,26.3,12.1
CCC(=O)N1[C@@H](CO)[C@H](c2ccccc2)[C@@H]1CN(C)C(=O)CN1CCOCC1,15.0,9.0
O=C(NCCN1CCCC1)[C@@H]1N[C@@H]2c3ccc(-c4ccccc4)c(=O)n3C[C@@H]2[C@H]1CO,3.7,2.8
COc1ccc(C#Cc2ccc([C@H]3[C@@H](CO)N4CCCCN(S(=O)(=O)c5ccccc5)C[C@@H]34)cc2)cc1,-3.8,-8.0
COc1ccc(C#Cc2ccc3c(c2)O[C@H](CN(C)C(C)=O)[C@H](C)CN([C@@H](C)CO)S3(=O)=O)cc1,-20.9,-19.1
O=C(NC1CCCCC1)N1CC2(C1)[C@H](c1ccccc1)[C@H](CO)N2CC1CCOCC1,5.6,10.3
COc1ccc2c3c(n(C)c2c1)[C@@H](CO)N(C(=O)c1ccccn1)CC31CN(C)C1,6.1,-0.4
[N-]=[N+]=Nc1ccccc1C[C@@]1(C(=O)NCCN2CCOCC2)N=C(c2ccc(OCCCO)cc2)O[C@@H]1c1ccccc1,-15.0,-15.5
O=C1O[C@@H](c2ccccc2)[C@@H](c2ccccc2)N2[C@@H](c3ccc(O)cc3)[C@]3(C(=O)Nc4ccc(C#CC5=CCCCC5)cc43)[C@@H](C(=O)O)[C@H]12,20.6,16.1
O=C(C1=C[C@H](c2ccc(Br)cc2)C[C@H](OCc2ccc(CO)cc2)O1)N1CCCCCCC1,-12.2,-8.1
C[C@@H]1CCCCO[C@H](CN(C)C(=O)Nc2cccc3ccccc23)[C@H](C)CN([C@@H](C)CO)C(=O)c2cc(NC(=O)Nc3ccc(F)cc3)ccc2O1,42.2,14.4
C[C@H](CO)N1C[C@H](C)[C@@H](CN(C)S(=O)(=O)c2ccc(Cl)cc2)Oc2c(NC(=O)Nc3ccc4c(c3)OCO4)cccc2C1=O,-2.1,1.1
CCCNC(=O)N1CC2(CCN(CC3CC3)CC2)c2c(n(C)c3cc(OC)ccc23)[C@@H]1CO,-8.4,-3.6
Cc1cccc(S(=O)(=O)N2CCCCN3[C@@H](CO)[C@H](c4ccc(C#CC5CC5)cc4)[C@@H]3C2)c1,-15.6,-26.5
C[C@@H]1CCCCO[C@@H](CN(C)Cc2ccc3c(c2)OCO3)[C@@H](C)CN([C@H](C)CO)C(=O)c2cc(NC(=O)Nc3ccc(F)cc3)ccc2O1,-0.7,7.7
CCS(=O)(=O)Nc1ccc2c(c1)C(=O)N(C)C[C@@H](OC)[C@@H](C)CN(C)[C@H](C)CO2,8.5,3.1
CCC(=O)N1C[C@@H](C)[C@@H](OC)CN(C)C(=O)c2cc(NC(=O)C3CC3)ccc2OC[C@H]1C,4.5,-1.0
O=C(C[C@@H]1CC[C@@H]2[C@H](COC[C@@H](O)CN2Cc2cccc(-c3ccncc3)c2)O1)N1CCCCC1,?,nt
O=C(Cc1ccccc1)N1CC(=O)N2[C@H](C1)[C@H](c1ccc(Br)cc1)[C@@H]2CO,25.3,26.6
C[C@@H]1CCCCO[C@H](CN(C)C(=O)NC2CCCCC2)[C@H](C)CN([C@@H](C)CO)C(=O)c2cc(N(C)C)ccc2O1,-7.3,2.0
C[C@@H]1CN([C@H](C)CO)S(=O)(=O)c2ccc(C#CCN(C)C)cc2O[C@H]1CN(C)Cc1cccnc1,9.3,-5.2
C[C@@H]1CN([C@@H](C)CO)S(=O)(=O)c2ccc(C3=CCCC3)cc2O[C@@H]1CN(C)C(=O)c1ccncc1,22.9,20.6
CO[C@H]1CN(C)C(=O)c2ccc(NC(=O)c3cnccn3)cc2OC[C@H](C)N(C(=O)C2CC2)C[C@H]1C,-1.5,-4.5
C[C@@H]1CCCCO[C@@H](CN(C)C(=O)CCC(F)(F)F)[C@@H](C)CN([C@H](C)CO)C(=O)c2cc(NS(=O)(=O)c3ccc(F)cc3)ccc2O1,-13.3,-17.1
COc1ccc(S(=O)(=O)Nc2ccc3c(c2)CC(=O)N([C@H](C)CO)C[C@@H](C)[C@@H](CN(C)S(=O)(=O)c2cn(C)cn2)O3)cc1,10.7,6.0
CCCN1C[C@H](C)[C@@H](OC)CN(C)C(=O)c2ccc(NS(=O)(=O)c3cn(C)cn3)cc2OC[C@H]1C,4.0,10.5
O=C(C[C@H]1C[C@@H]2c3cc(NC(=O)C4CCOCC4)ccc3O[C@@H]2[C@@H](CO)O1)NCc1ccncc1,13.3,6.4
Cc1cccc(S(=O)(=O)N(C)C[C@@H]2OCc3ccccc3-c3ccccc3C(=O)N([C@H](C)CO)C[C@@H]2C)c1,-25.6,-25.7
O=C(C[C@@H]1CC[C@@H]2[C@H](COC[C@H](O)CN2C(=O)c2ccc3c(c2)OCO3)O1)NC1Cc2ccccc2C1,-0.7,2.7
Cc1noc(C)c1NC(=O)N(C)C[C@@H]1Oc2c(NC(=O)Nc3cccc4ccccc34)cccc2C(=O)N([C@H](C)CO)C[C@@H]1C,-6.7,-2.0
CCCNC(=O)N(C)C[C@H]1Oc2ncc(Br)cc2C(=O)N([C@H](C)CO)C[C@H]1C,39.6,12.9
COCC(=O)Nc1ccc2c(c1)[C@H]1C[C@@H](CC(=O)NC3CCCCC3)O[C@H](CO)[C@H]1O2,3.2,-2.6
CN(C)C(=O)C[C@H]1CC[C@@H](NC(=O)Nc2cccc(F)c2)[C@@H](CO)O1,3.6,10.4
C[C@H]1CN([C@@H](C)CO)C(=O)c2cc(-c3cccc(F)c3)cnc2O[C@H]1CN(C)C(=O)c1cnccn1,31.9&25.1,10.4&16.1
C[C@H](CO)N1C[C@H](C)[C@H](CN(C)S(=O)(=O)c2cccs2)Oc2ccc(NC(=O)CCCCCC(=O)Nc3ccccc3N)cc2C1=O,16.2,4.3
COc1cccc(CN2CC3(CN(C(=O)Nc4c(C)noc4C)C3)c3c([nH]c4cc(OC)ccc34)[C@@H]2CO)c1,13.8,6.6
Cc1noc(C)c1NC(=O)N[C@@H]1C=C[C@@H](CC(=O)Nc2ccccc2)O[C@@H]1CO,11.3,7.2
Cc1ccc(S(=O)(=O)N(C)C[C@@H]2Oc3ccc(NS(=O)(=O)c4ccccc4)cc3C(=O)N([C@@H](C)CO)C[C@H]2C)cc1,-3.3,-10.0
COc1ccc(CN(C)C[C@@H]2Oc3ccc(NC(=O)NC4CCCCC4)cc3CC(=O)N([C@H](C)CO)C[C@H]2C)cc1,10.2,13.9
O=C(C[C@@H]1CC[C@@H](NC(=O)CN2CCOCC2)[C@@H](CO)O1)NCc1cccc(F)c1,-7.7,-3.9
COc1cccc(NC(=O)N(C)C[C@@H]2Oc3cc(-c4cccc(C(=O)N(C)C)c4)ccc3S(=O)(=O)N([C@H](C)CO)C[C@@H]2C)c1,21.3,12.3
CN1C(=O)c2cc(NC(=O)c3cccs3)ccc2OC[C@@H]2O[C@H](CC(=O)NCCN3CCCCC3)CC[C@H]21,-1.8,5.4
COc1ccccc1CNC(=O)C[C@@H]1CC[C@H]2[C@@H](COC[C@H](O)CN2Cc2ccc3c(c2)OCO3)O1,-9.3,-9.3
C[C@H](CO)N1C[C@H](C)[C@@H](CN(C)C(=O)Nc2ccc(F)cc2)Oc2c(NC(=O)CCCCCC(=O)Nc3ccccc3N)cccc2C1=O,8.7,13.7
O=C(Nc1cc(F)ccc1F)N[C@@H]1CC[C@H](CCn2cc(C3CC3)nn2)O[C@@H]1CO,-7.2,-2.9

# The list is partial; rates above refer to the full screens.
